Screening results deposited in PubChem by Broad Institute.
AF4-AF9 inh – inhibitors of AF4 peptide binding to AF9, primary screen, biochemical, AlphaScreen, biotin-AF4 peptide, FLAG-AF9, single point. inhibition, % at 10 µM. 350,000 compounds, 0.47% hits. AID 651704, 2012;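 active = every replicate reaching a set inhibition limit, whatever the replicate mean, cut at about 25% in these data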;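 also: 0% = plate neutral control median and 100% = total signal loss; the record names both 10 and 1 µM as test concentration; the first replicate is given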
Target sequence (P42568 whole entry, looked up): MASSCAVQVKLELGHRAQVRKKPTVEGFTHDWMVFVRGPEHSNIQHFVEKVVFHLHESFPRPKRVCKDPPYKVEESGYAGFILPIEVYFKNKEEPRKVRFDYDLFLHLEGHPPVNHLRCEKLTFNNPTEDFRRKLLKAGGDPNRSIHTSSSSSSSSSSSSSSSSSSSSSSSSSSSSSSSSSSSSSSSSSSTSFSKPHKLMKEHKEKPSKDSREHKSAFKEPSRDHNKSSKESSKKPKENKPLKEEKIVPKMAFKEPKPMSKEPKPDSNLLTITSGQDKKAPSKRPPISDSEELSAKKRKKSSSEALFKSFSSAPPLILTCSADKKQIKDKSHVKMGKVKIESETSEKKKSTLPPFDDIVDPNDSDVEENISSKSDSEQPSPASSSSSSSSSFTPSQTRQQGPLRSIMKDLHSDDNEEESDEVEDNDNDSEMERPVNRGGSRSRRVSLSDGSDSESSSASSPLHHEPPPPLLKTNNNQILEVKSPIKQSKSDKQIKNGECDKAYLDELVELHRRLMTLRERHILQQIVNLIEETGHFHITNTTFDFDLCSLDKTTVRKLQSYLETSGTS
rRNA inh HTS – reduced GFP signal of wild-type E. coli, primary screen, bacterial rRNA inhibitor project, GFP/RFP fluorescence, OD600, single point | GFP signal change (wild-type ribosome), % (no concentration beside the values) | E. coli WT GFP vs humanized-ribosome RFP mutants, 24 h; hits give low values; DMSO median 0, no signal -100 | 350,000 compounds, 1.6% hits;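 active = significant combined selectivity score with lowered wild-type GFP, culture density cut under 30%, mutant RFP and density less affected; inactive = any of these conditions unmet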; also: one replicate is shown; some compounds called inactive have numbers as strong as hits
FGF22 binding – binders of human FGF22 protein, primary screen, FGF22 synaptogenesis inhibitor project, biophysical, thermal shift, single point; Fibroblast growth factor 22 (Homo sapiens), Q9HCT0; recombinant FGF22 thermal shift, SYPRO orange fluorescence; percent of sucrose octasulfate shift, DMSO zero; calls only at 9.99 µM; 340,000 compounds, 1.5% hits;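 active = melting point raised past a set limit in the mean and every replicate; three in four hits are not shown here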
Target sequence (Q9HCT0 whole entry, looked up): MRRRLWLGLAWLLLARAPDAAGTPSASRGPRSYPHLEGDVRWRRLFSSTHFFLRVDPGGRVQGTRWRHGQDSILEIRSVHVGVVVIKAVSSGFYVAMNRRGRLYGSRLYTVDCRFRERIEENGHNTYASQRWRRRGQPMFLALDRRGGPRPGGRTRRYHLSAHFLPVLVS
rRNA inh HTS OD600 – recorded beside rRNA inh HTS, whose call it bears; OD600 change, %; measured here: OD600 growth;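 optical density of the mix in the first replicate; 0 = DMSO median and -100 = no signal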
rRNA inh HTS RFP – second read-out of rRNA inh HTS, no call of its own (marks repeat the call); RFP signal change, %; measured here: RFP humanized mutant strains;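 first replicate; 0 = DMSO median and -100 = no signal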
* = called active by the depositor; i = inactive; / = no result given. A portion of the library; count on the stated rates, not on these rows.

Each structure is followed by: AF4-AF9 inh	rRNA inh HTS	rRNA inh HTS OD600	rRNA inh HTS RFP	FGF22 binding
- C[C@@H]1CCCCO[C@@H](CN(C)S(=O)(=O)c2cccs2)[C@H](C)CN([C@H](C)CO)C(=O)c2cc(NC(=O)Nc3ccc(C(F)(F)F)cc3)ccc2O1
    -6.6	3	9	-0.9	i
- O=C1NC[C@H](CCCCN2C[C@H](Cc3ccc(O)cc3)N(CCC3CCCCC3)C(=O)C2=O)N(CCC2CCCCC2)C1=O
    -1.4	10	5	0.2	i
- O=C(c1ccccc1F)N1C[C@@H]2[C@H](c3ccccc31)[C@H](CO)N2C(=O)c1ccncc1
    -0.7	0	10	0.0	i
- C[C@H](CO)N1C[C@H](C)[C@@H](CN(C)S(=O)(=O)c2cccs2)Oc2ccc(NC(=O)Cc3cn(C)c4ccccc34)cc2CC1=O
    -0.1	-4	3	0.6	i
- CC(=O)N1CC(=O)N2[C@@H](CO)[C@H](c3ccc(-c4ccc(C)cc4)cc3)[C@@H]2C1
    0.2	-2	18	-5.2	i
- O=C(C[C@H]1C[C@H]2c3cc(NC(=O)CC4CC4)ccc3O[C@H]2[C@@H](CO)O1)NCC1CC1
    -3.2	3	-8	0.0	i
- Cc1ccc(NC(=O)CN2CCN(C(=O)C3CC3)CC2)c(F)c1
    -2.8	0	9	-0.7	i
- CCCC#Cc1ccc([C@@H]2[C@H](C#N)N(S(=O)(=O)c3cccc(F)c3)[C@H]2CO)cc1
    2.9	-45	-65	-4.2	i
- CC(C)(C)c1ccc(CC(=O)N2CCC2(C)C(=O)NS(=O)(=O)c2ccc3c(c2)CCO3)cc1 (configuration not stated)
    -1.9	-7	-5	-2.6	i
- COc1ccc(S(=O)(=O)N2CCCCC2)cc1NC(=O)C1CC1C (configuration not stated)
    0.1	12	8	0.7	i
- COc1ccc(S(=O)(=O)N(C)C[C@@H]2Oc3c(NC(=O)c4ccncc4)cccc3C(=O)N([C@H](C)CO)C[C@@H]2C)cc1
    -0.6	-2	3	0.2	i
- C[C@@H]1CN([C@H](C)CO)C(=O)Cc2cc(NC(=O)Nc3cccc4ccccc34)ccc2O[C@H]1CN(C)C(=O)Nc1ccc(C(F)(F)F)cc1
    1.7	2	2	2.1	i
- COc1ccc(S(=O)(=O)N(C)C[C@@H]2OCCCC[C@H](C)Oc3ccc(NC(=O)C4CCCCC4)cc3C(=O)N([C@H](C)CO)C[C@H]2C)cc1
    -1.2	-1	9	-0.8	i
- CCCNC(=O)N1CC(=O)N2[C@H](CO)[C@H](c3ccc(C#Cc4cccc(OC)c4)cc3)[C@@H]2C1
    -2.0	-2	0	4.5	i
- CNc1nc(Cl)nc2c1ncn2-c1ccccc1
    4.4	6	4	-0.1	i
- N#CC1(Nc2ccc3ccccc3c2)CCCC1
    9.2	0	-28	-3.4	i
- COc1cccc(C=NNC(=O)C2CC2)c1
    -5.5	7	7	-1.1	i
- Cc1ccc(S(=O)(=O)Nc2ccc3c(c2)CC(=O)N([C@H](C)CO)C[C@H](C)[C@H](CN(C)CC2CC2)O3)cc1
    0.4	0	1	-4.4	i
- CN1C(=O)c2cc(NC(=O)C3CC3)ccc2OC[C@H]2O[C@H](CC(=O)NCCN3CCCC3)CC[C@@H]21
    0.6	2	-1	-2.3	i
- O=C1NC(Cc2ccc(O)cc2)c2nc3cc(F)ccc3c(=O)n2-c2cc3ccccc3cc21 (configuration not stated)
    1.4	-15	-5	-2.9	/

Two entries from above, as labelled records.
SMILES: COc1ccc(S(=O)(=O)N(C)C[C@@H]2Oc3c(NC(=O)c4ccncc4)cccc3C(=O)N([C@H](C)CO)C[C@@H]2C)cc1
  AF4-AF9 inh = -0.6; rRNA inh HTS = -2; rRNA inh HTS OD600 = 3; rRNA inh HTS RFP = 0.2; FGF22 binding = i

SMILES: C[C@@H]1CN([C@H](C)CO)C(=O)Cc2cc(NC(=O)Nc3cccc4ccccc34)ccc2O[C@H]1CN(C)C(=O)Nc1ccc(C(F)(F)F)cc1
  AF4-AF9 inh = 1.7; rRNA inh HTS = 2; rRNA inh HTS OD600 = 2; rRNA inh HTS RFP = 2.1; FGF22 binding = i

Some of these compounds in order of their number in AF4-AF9 inh, lowest first:
canonical_smiles | AF4-AF9 inh
CCCNC(=O)N1CC(=O)N2[C@H](CO)[C@H](c3ccc(C#Cc4cccc(OC)c4)cc3)[C@@H]2C1 | -2.0
COc1ccc(S(=O)(=O)N(C)C[C@@H]2OCCCC[C@H](C)Oc3ccc(NC(=O)C4CCCCC4)cc3C(=O)N([C@H](C)CO)C[C@H]2C)cc1 | -1.2
COc1ccc(S(=O)(=O)N(C)C[C@@H]2Oc3c(NC(=O)c4ccncc4)cccc3C(=O)N([C@H](C)CO)C[C@@H]2C)cc1 | -0.6
Cc1ccc(S(=O)(=O)Nc2ccc3c(c2)CC(=O)N([C@H](C)CO)C[C@H](C)[C@H](CN(C)CC2CC2)O3)cc1 | 0.4
CNc1nc(Cl)nc2c1ncn2-c1ccccc1 | 4.4

(more compounds)
Each structure is followed by: AF4-AF9 inh	rRNA inh HTS	rRNA inh HTS OD600	rRNA inh HTS RFP	FGF22 binding
- Cc1noc(C)c1NC(=O)N[C@H]1CC[C@H](CC(=O)Nc2ccc(-c3ccccc3)cc2)O[C@@H]1CO
    -26	-9	0	-3.1	i
- CCC(=O)N1C[C@H](C)[C@@H](OC)CN(C)C(=O)c2ccc(NC(=O)COC)cc2OC[C@H]1C
    -2.6	2	3	-1.1	i
- CC(C)NC(=O)Nc1ccc2c(c1)C(=O)N([C@@H](C)CO)C[C@H](C)[C@@H](CN(C)Cc1ccc(C(=O)Nc3ccccc3N)cc1)O2
    0.0	2	3	-2.0	i
- CO[C@@H]1CN(C)C(=O)c2ccc(NC(=O)C3CC3)cc2OC[C@@H](C)N(Cc2cc(F)ccc2F)C[C@@H]1C
    -0.1	-8	-32	8.4	i
- OC[C@H]1O[C@H](c2nc(-c3nc(-c4cccs4)no3)cs2)C[C@@H]1O
    -5.2	6	14	0.4	i
- C[C@@H]1CN([C@H](C)CO)C(=O)c2c(c3ccccc3n2C)-c2ccccc2CO[C@H]1CN(C)C(=O)CCN(C)C
    2.6	6	9	0.0	i
- O=C(NCc1ccncn1)[C@@H]1[C@@H](CO)[C@@H]2Cn3c(ccc(-c4cccc(F)c4)c3=O)[C@@H]2N1CC1CC1
    -0.5	-5	-1	2.6	i
- COCC(=O)N1C[C@H](C)[C@H](OC)CN(C)C(=O)c2cc(NC(=O)c3cnccn3)ccc2OC[C@H]1C
    -0.5	-2	-2	-2.4	i
- Cc1cccc(C)c1NC(=O)C1(C)CSCC(=O)N1CCc1ccc(O)cc1 (configuration not stated)
    -3.3	-4	-11	-0.9	i
- O=C(C[C@H]1CC[C@@H]2[C@H](COC[C@@H](O)CN2C(=O)Nc2ccccc2)O1)NCc1ccncn1
    0.0	3	3	1.4	i
- CC(C)C[C@H]1COc2cc(N3CCN(Cc4ccccc4F)CC3)ccc2S(=O)(=O)N1
    0.8	17	12	8.9	i
- COc1cc(CNC[C@H]2O[C@@H](n3cc(C)c(=O)[nH]c3=O)C[C@@H]2O)ccc1OCc1cccc(Cl)c1
    -1.8	-1	1	4.2	i
- CCCN1C[C@H](C)[C@H](OC)CN(C)C(=O)c2cc(NC(=O)C3CCOCC3)ccc2OC[C@@H]1C
    -4.1	2	2	0.1	i
- CCC(=O)N(C)C[C@H]1Oc2cc(C3=CCCC3)ccc2S(=O)(=O)N([C@H](C)CO)C[C@@H]1C
    -4.6	-6	2	0.8	i
- Cc1noc(C)c1S(=O)(=O)Nc1ccc2c(c1)C(=O)N([C@@H](C)CO)C[C@H](C)[C@H](CN(C)C(=O)Cc1ccccc1)OCCCC[C@H](C)O2
    1.3	1	1	1.4	i
- C[C@H](CO)N1C[C@H](C)[C@@H](CN(C)Cc2ccncc2)OCCCC[C@H](C)Oc2ccc(NS(=O)(=O)c3cn(C)cn3)cc2C1=O
    -2.7	1	-1	-2.1	i
- O=C(CN1CCN(C(=O)c2cccc(S(=O)(=O)N3CCCC3)c2)CC1)Nc1ccccc1Cl
    -19	-7	0	-1.1	i
- CO[C@H]1CN(C)C(=O)c2ccc(NC(=O)NC(C)C)cc2OC[C@H](C)N(Cc2ccccc2)C[C@@H]1C
    -1.3	-2	-8	4.3	i
- CC(C)C[C@H]1CN(CCCC[C@H]2CNC(=O)C(=O)N2CCc2ccccc2)C(=O)C(=O)N1CCC1CCCCC1
    -0.9	6	3	2.5	i
- Cc1ccccc1S(=O)(=O)N1C[C@@H](O)COC[C@@H]2O[C@@H](CC(=O)O)CC[C@H]21
    -27	5	1	-3.1	i

Carrying on:
Molecule	AF4-AF9 inh	rRNA inh HTS	rRNA inh HTS OD600	rRNA inh HTS RFP	FGF22 binding
COc1ccc(S(=O)(=O)NCCSCc2ccc(Cl)cc2)cc1NC(C)=O	2.5	-18	-28	-2.7	i
C[C@H]1CCCCO[C@H](CN(C)C(=O)NC2CCCCC2)[C@@H](C)CN([C@@H](C)CO)C(=O)c2cc(NC(=O)NC3CCCCC3)ccc2O1	0.0	0	-3	0.2	i
Cc1ccc(NC(=O)C[C@H]2CC[C@H]3[C@@H](COc4ccc(NC(=O)C(C)C)cc4C(=O)N3C)O2)cc1	-1.8	-1	2	-4.9	i
C[C@H]1CN([C@@H](C)CO)C(=O)c2cccc(NC(=O)Nc3ccc(F)cc3)c2O[C@@H]1CN(C)C(=O)Nc1ccc(F)cc1	0.0	0	-1	-0.7	i
O=S(=O)(CCNCc1ccccc1)NC1CCCCC1	-3.1	-8	0	-5.0	i
CC(C)C(NS(=O)(=O)c1ccc2c(c1)oc(=O)n2C)C(=O)N1CCN(Cc2ccccc2)CC1 (configuration not stated)	0.0	8	6	1.8	i
CCC(=O)Nc1ccc2c(c1)C(=O)N(C)[C@@H]1CC[C@H](CC(=O)NCCc3ccncc3)O[C@@H]1CO2	-0.3	2	15	-1.3	i
C[C@@H]1CN([C@H](C)CO)S(=O)(=O)c2ccc(C3=CCCCC3)cc2O[C@@H]1CN(C)C(=O)C1CCOCC1	-0.8	-2	-10	1.6	i
COc1ccc(NC(=O)c2cc(-c3cc(F)ccc3OCC3CCCO3)n[nH]2)c(C)c1 (configuration not stated)	-0.8	-9	-6	-3.2	i
COc1ccc(S(=O)(=O)Nc2ccc3c(c2)C(=O)N([C@@H](C)CO)C[C@H](C)[C@@H](CN(C)Cc2ccc(C(=O)O)cc2)O3)cc1	-8.8	3	2	-2.1	i
COc1ccc(C#Cc2ccc3c(c2)O[C@@H](CN(C)C(=O)CN2CCOCC2)[C@@H](C)CN([C@@H](C)CO)S3(=O)=O)cc1	4.7	2	-18	21	i
CCOc1cc(/C=C(/C#N)c2ccc(Cl)cc2)cc(Cl)c1OCC(=O)O	0.3	-51	-73	-24	i
COCCCNC(=O)C[C@H]1C[C@@]2(C(=O)OC)C(=C[C@H](C(C)(C)C)O[C@@H]2C)N(Cc2ccc3c(c2)OCO3)C1=O	-1.8	8	6	2.2	i
CC(C)C#Cc1ccc2c(c1)O[C@@H](CN(C)CC1CC1)[C@@H](C)CN([C@@H](C)CO)S2(=O)=O	5.0	0	5	1.8	i
COc1ccc(S(=O)(=O)N(C)C[C@H]2Oc3ccc(N(C)C)cc3C(=O)N([C@H](C)CO)C[C@H]2C)cc1	1.9	1	5	1.4	i
CN1c2ccc(-c3cccc(F)c3)cc2[C@@H]2[C@@H](CCN2C(=O)C2CCOCC2)[C@H]1CO	2.2	-5	-15	4.1	i
CCN(CC)C(=O)C1=C(C)N(CCC2=CCCCC2)C(=O)C(CC(=O)NC(c2ccccc2)c2ccccc2)C1 (configuration not stated)	2.2	1	-1	2.5	i
Cc1cccc(C2=NN(c3ccc(Br)cc3)[C@@H](C(=O)N3CCOC3=O)[C@@H]2c2ccc([N+](=O)[O-])cc2)c1	6.8	16	20	4.8	i

In the list so far, these contain a cyano group:
Molecule	AF4-AF9 inh	rRNA inh HTS	rRNA inh HTS OD600	rRNA inh HTS RFP	FGF22 binding
CCCC#Cc1ccc([C@@H]2[C@H](C#N)N(S(=O)(=O)c3cccc(F)c3)[C@H]2CO)cc1	2.9	-45	-65	-4.2	i
N#CC1(Nc2ccc3ccccc3c2)CCCC1	9.2	0	-28	-3.4	i
CCOc1cc(/C=C(/C#N)c2ccc(Cl)cc2)cc(Cl)c1OCC(=O)O	0.3	-51	-73	-24	i
